# MLL AF4-AF9 inh – inhibitors of AF4 peptide binding to AF9, primary screen, biochemical, AlphaScreen, biotin-AF4 peptide, FLAG-AF9, single point | Protein AF-9 (Homo sapiens), P42568 | 350,000 compounds, 0.47% hits | inhibition, % at 10 µM;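 active = every replicate reaching a set inhibition limit, whatever the replicate mean, cut at about 25% in these data; inconclusive = mean inhibition reaches that limit but some replicates miss it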;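 note: 0% = plate neutral control median and 100% = total signal loss; the record names both 10 and 1 µM as test concentration; the first replicate is given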
# Target sequence (P42568 whole entry, looked up): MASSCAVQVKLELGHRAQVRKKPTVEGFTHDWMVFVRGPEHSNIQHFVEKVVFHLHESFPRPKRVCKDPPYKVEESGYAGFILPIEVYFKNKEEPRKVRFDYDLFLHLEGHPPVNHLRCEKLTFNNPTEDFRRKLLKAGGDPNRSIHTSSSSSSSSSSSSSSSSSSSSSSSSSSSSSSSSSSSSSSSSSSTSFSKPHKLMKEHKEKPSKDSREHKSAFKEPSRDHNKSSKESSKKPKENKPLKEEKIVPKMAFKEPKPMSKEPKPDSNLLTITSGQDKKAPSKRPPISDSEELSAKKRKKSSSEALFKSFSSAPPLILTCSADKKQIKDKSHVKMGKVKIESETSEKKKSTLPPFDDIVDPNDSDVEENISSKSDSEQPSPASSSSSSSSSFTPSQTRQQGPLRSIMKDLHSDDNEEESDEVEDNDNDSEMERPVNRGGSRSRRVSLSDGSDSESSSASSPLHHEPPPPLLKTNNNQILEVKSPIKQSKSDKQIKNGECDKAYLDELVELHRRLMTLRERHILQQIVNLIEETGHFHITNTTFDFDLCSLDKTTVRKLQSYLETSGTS
# Calb FLC – C. albicans growth inhibition with fluconazole, primary screen, CaCi-2 strain, Alamar Blue fluorescence | 300,000 compounds, 0.57% hits | growth inhibition, % (no concentration beside the values) | C. albicans CaCi-2 (fluconazole-resistant clinical isolate) + fluconazole, 48 h;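 active = most replicates above 75%; inconclusive = exactly half above 75%; inactive = most below 75%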;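 note: all wells also contain fluconazole at 8 µg/ml as a sub-toxic cotreatment; 0% = median of DMSO wells and 100% = median of geldanamycin control wells; wells of about 8 µL received 7.5 nL stock; the first replicate is given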
# A1 inh – caspase 3/7 activation in MEF A1-2A-BIM cells, primary screen, A1 inhibitor project, cell-based, luminescence, HTS. Caspase-Glo 3/7 luminescence, 3 h; percent of clofoctol response, vehicle zero. caspase activation, % (concentration not given with the values). 330,000 compounds, 0.066% hits. AID 2462, 2010;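 active = over half of replicate activation scores above 10%, or exactly half above 10 with the replicate mean above 10; inconclusive = replicate mean below 10 yet half the replicates above 10; inactive = over half of replicates below 10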;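 note: wells of about 30 µL received 50 nL stock; many hits fall short of the cut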
# T cruzi repl – inhibitors of intracellular T. cruzi growth, primary screen, luminescence, NIH3T3 host cells. AID 1885, 2009. T. cruzi beta-gal in NIH3T3, 90 h. inhibition, % (no concentration beside the values). 300,000 compounds, 1.4% hits;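 active = mean inhibition across valid replicates above about 55%, limit read from the data; inconclusive = mean below that limit but half or more replicates reach it; inactive = mean below it, under half of replicates reach it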;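 note: signal also drops with host cell toxicity which is not excluded here; 0% = plate median of DMSO wells and 100% = zero luminescence signal; higher percent means less beta-gal luminescence so fewer parasites; stock transfer was 50 nL into about 50 µL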
# rRNA inh HTS – reduced GFP signal of wild-type E. coli, primary screen, bacterial rRNA inhibitor project, GFP/RFP fluorescence, OD600, single point; E. coli WT GFP vs humanized-ribosome RFP mutants, 24 h; active compounds read low; DMSO median 0, no signal -100; 350,000 compounds, 1.6% hits; GFP signal change (wild-type ribosome), % (test concentration not listed);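 active = significant combined selectivity score with lowered wild-type GFP, culture density cut under 30%, mutant RFP and density less affected; inactive = any of these conditions unmet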; note: one replicate is shown; some compounds called inactive have numbers as strong as hits
# Beta cell apopt – inhibitors of cytokine-induced beta cell apoptosis, primary screen, luminescence | INS-1E cytokine-induced death, ATP luminescence, 48 h; percent of positive-control rescue, neutral wells zero | protection from apoptosis, % (test concentration not listed) | 300,000 compounds, 0.8% hits;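 active = all replicates at 75% or more, or half of them and the mean; inconclusive = half reach 75% but not the mean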;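 note: 0% = cytokine-treated negative control wells and 100% = positive control rescue; higher means more ATP so stronger rescue from cytokine killing; wells of about 40 µL received 100 nL stock; the first replicate is given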
# RanGTP-Impb inh – inhibitors of RanGTP-importin-beta interaction, primary screen, biochemical, FRET, CFP-Ran, YFP-importin-beta, homogeneous; 300,000 compounds, 1.1% hits; cell-free CFP-Ran/YFP-importin-beta FRET ratio; AID 2216, 2009; Ran GTPase (GTP-bound) - importin-beta complex; inhibition, % (concentration not given with the values);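 active = most replicates above 15%; inconclusive = exactly half above 15%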;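 note: 0% = DMSO wells and 100% = Ran loaded with GDP instead of GTP; wells of about 40 µL received 100 nL stock; the first replicate is given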
# Vif TR-FRET – inhibitors of Vif binding to APOBEC3G peptide, primary screen, biochemical, TR-FRET, GST-Vif 1-94, biotin-A3G peptide, dose response retest (AID 1117319); TR-FRET GST-Vif / biotin-A3G peptide binding; higher % means a stronger effect; test concentration not given here; strong numbers were not always called active; one-dose inhibition, %; IC50 in µM for titrated hits; 260,000 compounds, 0.57% hits; Virion infectivity factor (Human immunodeficiency virus type 1 group M subtype B (isolate …;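 active = above the screen mean plus three standard deviations and confirmed in dose response; inconclusive = results disagree or hit not tested in dose response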;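 note: Vif residues 1-94 fused to GST binding biotinylated APOBEC3G peptide 110-148; 0% = full assay without inhibitor and 100% = GST in place of GST-Vif; retest series ran down from 100 µM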
# rRNA inh HTS OD600 – also measured in rRNA inh HTS; calls as there; OD600 change, %; measured here: OD600 growth;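 optical density of the mix in the first replicate; 0 = DMSO median and -100 = no signal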
# rRNA inh HTS RFP – further read-out of rRNA inh HTS, marked with its call; RFP signal change, %; measured here: RFP humanized mutant strains;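 first replicate; 0 = DMSO median and -100 = no signal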
# Active calls of the source: *; ? = inconclusive; nt = not tested or not shown; & = joins results of further samples. Not all compounds are listed (hit frequency here may not be typical).
SMILES,MLL AF4-AF9 inh,Calb FLC,A1 inh,T cruzi repl,rRNA inh HTS,rRNA inh HTS OD600,rRNA inh HTS RFP,Beta cell apopt,RanGTP-Impb inh,Vif TR-FRET
COc1ccc2oc(C(F)(F)C(F)(F)F)cc(=O)c2c1,nt,1,0.4,-11,nt,nt,nt,-2,-4.5,71%
Cc1ccc(NC(=O)Cc2ccc(-c3ccccc3)cc2)nc1,-3.6,-9,-0.7,6,-1,-22,0.0,-18,?,-7%
COc1ccc(CN2CCNC(=O)C2CC(=O)N(C)C2CCOCC2)c(F)c1 (stereo unspecified),-0.6,-21,0.6,-12,4,7,-0.3,-2,-0.5,6%
CC(Oc1cccc(Cl)c1)C(=O)Nc1cc(S(=O)(=O)N2CCCCC2)ccc1N1CCOCC1 (stereo unspecified),-1.6,1,-0.3,13,4,-2,2.5,16,nt,1%
CC(C)c1cc(C(=O)N/N=C/c2ccco2)n[nH]1,1.2,-9,-1.3,-8,-2,-3,-1.7,-10,-0.1,-4%
O=C(CN(Cc1ccc2c(c1)OCO2)C(=O)c1cnsn1)NC1CCCC1,nt,1,0.1,6,nt,nt,nt,-13,-3.0,?
O=C(CCC(=O)Nc1nnc(C2CCCCC2)s1)NCc1cccs1,nt,-10,0.9,-6,nt,nt,nt,-5,4.5,-2%
CCc1ccc2[nH]c(=O)c(C(c3nnnn3CCOC)N3CCN(c4ccccc4F)CC3)cc2c1 (stereo unspecified),nt,3,0.5,-7,nt,nt,nt,-7,1.4,11%&10%
COC(=O)c1cc(C(=O)OC)cc(N2C(=O)CC(NNC(=O)c3ccccc3Cl)C2=O)c1 (stereo unspecified),nt,0,-1.1,-7,nt,nt,nt,-3,1.2,19%
C=CC[C@H](CC(=O)OC(C)(C)C)C(=O)OC[C@H]1CCCN1C(=O)[C@H](CC=C)CC(=O)N(CCO)Cc1ccccc1,-2.4,nt,-0.9,nt,-12,-24,21,5,nt,nt
O=C(CCc1nnc2ccc(NCc3ccccc3Cl)nn12)NC1CCCC1,9.9,9,0.6,11,1,7,0.6,8,0.6,nt
COc1ccc(/C(C)=N/NC(=O)c2nnn(-c3nonc3N)c2CN(C)c2ccccc2)cc1,-1.3,nt,1.2,4,-6,-7,3.4,15,2.0,0%
O=C(Nc1nnc(-c2cccs2)o1)c1ccco1,9.1,-1,0.3,4,8,7,6.2,-7,8.0,-2%
CC(=O)c1ccc(NC(=O)c2ccc(COc3ccccc3[N+](=O)[O-])o2)cc1,5.3,-23,0.0,-24,2,-6,-5.6,0,7.2,9%
COc1ccccc1OCC(=O)NNC(=S)NC(=O)c1ccco1,nt,-2,-0.5,-21,nt,nt,nt,-5,-0.7,21%
CCn1c(O)c(C(C#N)=C2N=c3ccccc3=N2)c2ccccc21,nt,0,1.0,-7,nt,nt,nt,0,0.8,2%
CCOC(=O)c1c(-c2ccccc2Cl)csc1NC(=O)CSc1nc(C)cc(=O)[nH]1,-6.8,-1,1.0,7,-53,-71,-24,-2,-4.2,26%
COc1cccc(OC)c1C(=O)Nc1sc2c(c1C(N)=O)CCN(Cc1ccccc1)C2,10,-5,0.0,3,5,-33,17,-16,134*,nt
Cc1ccc(CN2CC(C(=O)Nc3ccccc3N3CCCC3)CC2=O)cc1 (stereo unspecified),9.2,1,-0.8,-13,-6,-8,0.5,8,-0.1,-1%
CCN1/C(=C2/SC(=S)N(C)C2=O)C=Cc2cc(C)ccc21,-4.0,-26,0.3,-13,3,2,5.3,-1,-1.1,nt
CC1CN(C2=Nc3cccc4cccc2c34)CC(C)O1 (stereo unspecified),2.1,4,0.5,-9,4,-8,9.0,0,-6.2,-8%
Cc1ccc(C(=O)NC(C)c2ccccc2)cc1S(=O)(=O)N1CCOCC1 (stereo unspecified),2.5,2,0.1,-2,-3,-1,-0.8,nt,-4.2,1%
O=C1CCCC(O)=C1C=NCCc1ccccc1,nt,8,-0.2,-3,nt,nt,nt,-2,1.1,0%
COc1ccc(-n2nnnc2SCC(=O)Nc2ccccc2N2CCOCC2)cc1,-1.1,-5,-0.4,28,10,8,-0.4,1,6.7,-4%
CCOc1ccc(NC(=O)c2nnn(CC(=O)Nc3ccccc3OC)c2N)cc1,nt,18,-0.5,8,nt,nt,nt,-3,4.6,-7%
# Further structures
SMILES,MLL AF4-AF9 inh,Calb FLC,A1 inh,T cruzi repl,rRNA inh HTS,rRNA inh HTS OD600,rRNA inh HTS RFP,Beta cell apopt,RanGTP-Impb inh,Vif TR-FRET
Cc1ccn2cc(-c3cccc(S(=O)(=O)N4CCCCC4)c3)nc2c1,-1.8,12,-1.5,-1,-44*,-35*,-1.6*,2,-8.1,nt
Cc1ccc(S(=O)(=O)CCC(=O)Nc2ccc(F)cc2)cc1,-3.5,18,0.4,-3,12,12,-1.2,-2,?,nt
CCCn1nnc(NC(=O)Cc2ccccc2)n1,nt,5,-0.7,-1,nt,nt,nt,-5,1.9,2%
COc1cnc(-c2ccccn2)nc1Oc1ccc(Cl)cc1,nt,-13,0.5,-6,nt,nt,nt,8,-2.2,2%
O=C(Nc1ccc[n+](CC(=O)c2cccc3ccccc23)c1)c1ccccc1,nt,-15,0.0,5,nt,nt,nt,13,2.4,-11%
Cc1ccc(NC2CCCN(C(=O)c3cnsn3)C2)cc1C (stereo unspecified),5.3,0,-0.3,0,2,-2,-0.8,-5,4.2,nt
C=CCOc1ccccc1CN(C(=O)CCl)c1ccc2c(c1)OCO2,1.2,-9,0.3,50,-4,-6,1.6,10,1.2,-6%
CCCOc1ccc(C2C3=C(CCCC3=O)N(CC(=O)O)C3=C2C(=O)CCC3)cc1OCC,-1.3,1,0.4,9,11,12,-0.3,-9,0.0,6%
COc1cc(=O)[nH]c(=O)n1CC(=O)c1ccccc1,nt,1,-0.4,5,nt,nt,nt,2,-2.1,?
COc1cccc(C(=O)Nc2cc(C(=O)NCCc3ccccc3)ccc2Cl)c1,-1.6,1,0.3,0,5,4,-1.8,2,6.4,-6%
COc1ccc(N(CC(=O)NC2CCCC2)C(=O)Cn2nnc(-c3ccc(OC)c(OC)c3)n2)cc1,0.4,-5,-0.8,15,14,8,7.4,-2,-1.2,nt
C=C(C)Cn1c(CCNC(=O)C(C)C)nc2ccccc21,nt,-1,0.1,4,nt,nt,nt,0,2.5,0%
Cc1ccc(N2C(=O)C3C4C=CC(CNC(=S)Nc5cccc(Cl)c5)(O4)C3C2=O)cc1 (stereo unspecified),-0.2,4,0.1,0,-6,0,-5.1,1,-0.3,30%
COc1ccc(NC(=O)COC(=O)c2c(-c3ccccc3)noc2C)cc1,-2.5,29,0.1,2,4,6,-0.3,2,-3.9,5%
CCCc1nnc(-c2cc(OC)c(OC)c(OC)c2)o1,3.2,-11,0.4,4,4,5,-1.6,-4,-3.4,nt
C[C@@H]1CN([C@H](C)CO)C(=O)c2cc(NC(=O)Nc3ccc(C(F)(F)F)cc3)ccc2O[C@H]1CN(C)S(=O)(=O)c1ccc(Cl)cc1,-0.4&-1.9,nt,-0.1,nt,1,12,2.5,-7,nt,-5%
Cc1ccnc(N/N=C/c2ccco2)n1,nt,28,-2.0,-4,nt,nt,nt,11,2.9,6%
COCCn1c(SCc2nc(N)nc(Nc3ccccc3C)n2)nc2ccccc2c1=O,8.5,15,0.2,30,9,0,0.5,2,2.1,4%
COc1cccc(C(=O)Nc2nc(-c3ccc4c(c3)OCO4)cs2)c1,6.6,2,-0.3,4,-23,-42,2.7,nt,9.6,-6%
C=CCOc1ccccc1NC(=O)CN1C(=O)CNC1=O,-0.6,-2,0.3,2,2,5,-0.2,-3,-1.8,nt
CCOP(=O)(c1ccc(N(C)C)cc1)C(O)c1ccccc1 (stereo unspecified),nt,11,0.1,-14,nt,nt,nt,-6,8.1,3%
CCC(C)Sc1nnc(CSc2nc3nc(C)cc(C)n3n2)o1 (stereo unspecified),nt,-2,-1.1,-12,nt,nt,nt,-4,-1.2,4%
CCN(CC)c1ccc(/C=N/NC(=O)Nc2ccccc2)cc1,14,-1,-0.6,20,-52,-76,-6.8,nt,8.1,26%
CCOc1ccccc1CNC(CC)CO (stereo unspecified),-1.1,?,0.6,10,8,12,-0.5,-2,6.6,9%
C=CCn1nnnc1SCC(=O)Nc1ccc(C(=O)OC)cc1,-1.4,3,?,-8,3,2,0.3,-2,3.6,nt
# (further entries)
SMILES,MLL AF4-AF9 inh,Calb FLC,A1 inh,T cruzi repl,rRNA inh HTS,rRNA inh HTS OD600,rRNA inh HTS RFP,Beta cell apopt,RanGTP-Impb inh,Vif TR-FRET
Cc1ccc(C)c(NS(=O)(=O)c2cc(C(=O)Nc3ccccc3-c3ccccc3)ccc2Cl)c1,-0.9,3,0.9,40,9,3,-0.5,-7,-5.1,4%
Cc1cnc(C(=O)Nc2ccc(-n3cnnn3)cc2)cn1,nt,4,-0.2,-31,nt,nt,nt,0,0.3,13%
CCCC(=O)NCc1ccncc1,-1.3,-18,0.4,-8,23,10,3.0,-1,5.7,1%
CN(CCNC(=O)C1CCN(S(=O)(=O)c2cnc[nH]2)CC1)Cc1ccccc1,nt,1,0.2,1,nt,nt,nt,-2,-1.8,-2%
Cc1cccc(NC(=O)c2cccc(C(=O)Nc3cccc(C)c3)c2)c1,1.3,17,-1.0,2,8,7,5.9,3,4.8,-6%
O=C(O)c1sccc1S(=O)(=O)N1CCN(c2ccc(C(F)(F)F)cn2)CC1,nt,2,0.3,-6,3,4,-0.7,6,1.1,-3%
COc1ccc(C(=O)C[n+]2cccc(C)c2C)cc1[N+](=O)[O-],-1.6,-26,0.2,-10,8,10,-1.6,3,-1.6,6%
COC(=O)c1ccc(N2CCCCC2)c(NC(=O)c2ccco2)c1,1.8,7,0.2,21,-3,-27,-5.9,nt,-3.8,nt
Cc1ccc(CC(=O)Nc2cccnc2)cc1,-2.0,?,-0.2,-19,9,6,-2.2,14,1.6,3%
CC(C)(C)c1ccc(C(=O)Oc2ccccc2CCC(=O)O)cc1,-0.5,1,0.7,4,-5,-3,-1.7,6,1.3,nt
CC1=NNC(=O)C1CC(=O)N/N=C(\C)c1cccs1 (stereo unspecified),-1.1,-10,-0.7,-10,13,11,0.1,-2,-1.8,-9%
